Source: PubChem BioAssay
Tg IFNy HTS – blocks Toxoplasma gondii growth in the presence of IFN-gamma. Toxoplasma gondii growth in IFN-gamma-treated host cells; hits give low values; reference of the scale not given here. 69,000 compounds, 3.8% hits. activity change, negative = inhibition, %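 (about 20 µM by stock and volumes)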;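 active = below -70%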;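 also: host cells are HeLa cells infected with Toxoplasma gondii; parasite growth read as luciferase light; one replicate is shown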
Numbers without * were called inactive; & = joins results of further samples.

SMILES | Tg IFNy HTS
O=C(Oc1cccc2cccnc12)c1ccc2c(c1)-c1ccccc1C2=O | 55
C/C=C/c1ccc(C2[C@H]3CNC[C@@H]2N3C(=O)NCCC)cc1 (stereo not given in full) | 8&-5
COc1ccc2c(c1)NC1(CCN(C(=O)NCC3CCCO3)CC1)c1cccn1-2 (stereo not given) | 107
Cc1ccc(-c2nc(CNC(=O)c3cnccn3)[nH]c2-c2ccccn2)cc1 | 9
N#Cc1ccc(-c2ccc([C@H]3[C@@H](CO)N4C(=O)CNC[C@@H]34)cc2)cc1 | -5
CCC(C)n1[nH]c(=O)c2c(C3CCN(C(=O)c4ccco4)CC3)cc(C(F)(F)F)nc21 (stereo not given) | -16
O=C(Nc1cnn(-c2ncc(N3CCSCC3)cn2)c1)NC1CCCCC1 | 0
CCOC(=O)Cn1cnc2c(=O)n(C)c(=O)n(C)c21 | 60
CO[C@@H](CN(C)CC1CCOCC1)[C@@H](C)CN(C(=O)Nc1ccc(F)cc1)[C@@H](C)CO | 94
Cc1cccc(OCCCN2CCN(S(=O)(=O)c3cnn(C)c3C)CC2)c1C | -43
Cc1ccc(CN(C)C(=O)c2c(C)nc3sccn23)o1 | -46
CC1=C(C(=O)NCCc2ccccc2)C2(CCN(S(C)(=O)=O)CC2)OC1=O | 25
Cc1cnc(CNC(=O)c2cc(-c3ccccc3Cl)oc2C)cn1 | -5
CC1N(c2cnn(C)c2)C(=O)COC12CCN(c1ncccn1)CC2 (stereo not given) | 0
CCOC(=O)c1cc(CC)sc1NC(=O)c1ccc2c(c1)OCO2 | -1
O=C(c1cc2cccnc2n(Cc2ccccc2F)c1=O)N1CCN(c2cccc(Cl)c2)CC1 | -63
CCCCNC(=O)N1CCC2(CC1)C(=O)N(c1ccc(C)nc1)CCN2Cc1ccccc1 | -14
CSCCCNC(=O)[C@@H]1C[C@H](NC(=O)c2cccc(Cl)c2)CN1C | 9
CNC(=O)c1cc(C2CCC(CNC(=O)c3cnc(N(C)C)nc3)CC2)nc2ccccc12 (stereo not given) | 1
CN(C)CCN1C2(CCN(C(=O)Cc3cccnc3)C2)c2ccccc2S1(=O)=O (stereo not given) | 66
CN1CCC(N2CCN(C(=O)C3CCN(c4cncnc4N4CCCC4)CC3)CC2)CC1 | -33
COC(=O)c1c(NCc2cc(OC)ccc2OC)c2cccc(Cl)c2[nH]c1=O | -7
O=C(C1CCCC1)N1CC2(C1)[C@@H](c1ccccc1)[C@@H](CO)N2Cc1ccc(Cl)cc1 | -63
Cc1ccc(NC(=O)Cn2ncc3c(N4CCN(c5ccccc5)CC4)ncnc32)c(C)c1 | -54
CCC(CO)N(Cc1ccco1)C(=O)c1cn(C)c2ccc(C)cc2c1=O (stereo not given) | 68

(more compounds)
SMILES | Tg IFNy HTS
CCOc1ccc(-c2noc(-c3c(O)c4cc(C)ccc4[nH]c3=O)n2)cc1OC | -9
Cc1ncc(CO)c(CN2CCCC2c2ccccn2)c1O (stereo not given) | 43
Clc1ccc(C2CN(Cc3cnc(CC4CCCC4)[nH]3)CCO2)cc1 (stereo not given) | -57
COc1ccccc1-c1nc(Cn2c(=O)c3c(C)cc(C)nc3n(-c3ccccc3)c2=O)c(C)o1 | 3
CCOc1ccc(NC(=O)NCC(c2cccnc2)c2cn(CC)c3ccccc23)cc1 (stereo not given) | 476
O=C(OCCO)c1ccccc1O | 9
CCOC[C@@H]1CCC[C@]12CN(S(=O)(=O)c1cn(C)cn1)CCO2 | -24
CC(C)OCc1ncn2c1CN(C(=O)COc1ccccc1)CCC2 | -41
COCC(=O)N(C)C[C@@H]1[C@@H](c2ccccc2)[C@H](CO)N1C(=O)Cc1ccncc1 | 15
CC1=C(C(=O)NCCCN2CC(C)CC(C)C2)C2(CCCCCC2)OC1=O (stereo not given) | 58
COc1ccccc1NC(=O)C1CC(C2CCCN(Cc3cccc(C)c3)C2)N(C)C1 (stereo not given) | -44
CC(C)NC(=O)N1CCC2(CC2C(=O)N(C)Cc2ccccn2)C1 (stereo not given) | -2
CC1=C(C(=O)NCCCN2C(C)CCCC2C)C2(CCCCC2)OC1=O (stereo not given) | -3
CCOc1ccccc1NS(=O)(=O)c1cc(OC)ccc1OC | 1
Cc1nc2c(c(=O)[nH]1)CCN(S(=O)(=O)c1cc(Cl)ccc1Cl)C2 | 1
COCCC1COC2(CCN(Cc3ccn[nH]3)CC2)C1 (stereo not given) | 2
Cn1cncc1CN1CCOC2(CCCN(c3cccc(C#N)c3)C2)C1 (stereo not given) | -7
Cc1ccc(NC(=O)Nc2ccc(C#N)cc2)cc1Cl | -71*
Cc1noc(C)c1NC(=O)N(C)C[C@@H]1OCc2ccccc2-c2c(n(C)c3ccccc23)C(=O)N([C@H](C)CO)C[C@H]1C | 27
COc1ccccc1-c1ccc(/C=C2/C=C(CC(C)C)OC2=O)o1 | -4
C=CC(=O)Nc1ccc2ncnc(Nc3ccc(OCc4cccc(F)c4)c(Cl)c3)c2c1 | -51
C[C@H]1CN([C@@H](C)CO)C(=O)c2ccccc2-c2ccccc2CO[C@@H]1CN(C)C(=O)[C@@H](Cc1ccccc1)N(C)C | -14
CN1CCN(C(=O)c2cc3cc(Cl)ccc3[nH]2)CC1 | 20
Cc1nc(C(C)N(C)C(=O)Nc2ccc3c(c2)OCO3)c(C)s1 (stereo not given) | 26
CN(Cc1ccc2c(c1)OCO2)C(=O)c1cccc(C#CC(C)(C)O)c1 | 3

Two successive records from above:
SMILES | Tg IFNy HTS
Cc1ncc(CO)c(CN2CCCC2c2ccccn2)c1O (stereo not given) | 43
Clc1ccc(C2CN(Cc3cnc(CC4CCCC4)[nH]3)CCO2)cc1 (stereo not given) | -57

Individual results from above:
Value of `CCOc1ccccc1NS(=O)(=O)c1cc(OC)ccc1OC` under Tg IFNy HTS: 1
Value of `COCC(=O)N(C)C[C@@H]1[C@@H](c2ccccc2)[C@H](CO)N1C(=O)Cc1ccncc1` under Tg IFNy HTS: 15
Value of `CCOc1ccc(NC(=O)NCC(c2cccnc2)c2cn(CC)c3ccccc23)cc1` (stereo not given) under Tg IFNy HTS: 476

Next section.
SMILES | Tg IFNy HTS
CC1CCCN(C(=O)c2ncn3c2CN(CC2CC2)S(=O)(=O)c2ccccc2-3)C1 (stereo not given) | 23
CN1Cc2c(CN3CCCC3=O)nn(C)c2C1 | 23
Cc1ccc(-c2nc3c(s2)CN(C(=O)Nc2ccccc2C)CC3)cc1 | 80
COc1cc(-c2n[nH]c(Cc3ccccc3)n2)nc(OC)n1 | 14
CCOC(=O)CSC(=O)c1cccnc1Oc1ccccc1 | 17
O=C(O)Cc1sc(-c2ccc(Br)cc2)nc1-c1ccc(Br)cc1 | -9
CSc1nsc(SCC(=O)Nc2nnc(C(C)C)s2)n1 | -27
Cc1ccc2c(c1)C(=O)CC1(CCN(C(=O)c3cc(-c4cnn(C)c4C)n[nH]3)CC1)O2 | -55
Cc1nc(N(C)C)nc2c1COCC21CCN(Cc2cccnc2)C1 (stereo not given) | 27
COc1ccc(NC(=O)Cn2ncc3c(N4CCN(c5ccccn5)CC4)ncnc32)cc1Cl | 120
CCOC(=O)c1cccc(NC(=O)CN2C(=O)CCc3cc(S(=O)(=O)N4CCCCC4)ccc32)c1 | -34
COc1cccc(NC(=O)N[C@H]2C=C[C@@H](CC(=O)NCc3ccncn3)O[C@@H]2CO)c1 | -17
Cn1cc(CN(C(=O)C2CCCN(Cc3ccco3)C2)C2CC2)cn1 (stereo not given) | -2
Cc1ccc(Cl)cc1NC(=O)Cn1ncc2c(N3CCOCC3)ncnc21 | 51
COCCN1CCN(C(=O)[C@H]2CCCO2)Cc2ccc(C)nc21 | -34
COC(=O)c1sc(OC)cc1OC(=O)c1ccco1 | 31
Cc1oc(-c2ccc(Cl)cc2)nc1CN1CCCC(C(=O)NC2CCCCC2C)C1 (stereo not given) | -36
CCOc1ccccc1-c1nc(CN(c2ccc(OC)cc2)S(=O)(=O)c2ccc(C)cc2)c(C)o1 | -19
O=C1CNC[C@@H]2[C@@H](c3ccc(C#Cc4cccnc4)cc3)[C@@H](CO)N12 | -62
CN(C)C(=O)CO[C@H]1C[C@@H]2CN(Cc3cccn3C)CCN2C1 | -1
CC1c2ncc(Cn3cccn3)n2CCN1CC1CCOCC1 (stereo not given) | 125
CC1CCN(C(CNC(=O)Cc2nnc(N)s2)c2ccccc2)CC1 (stereo not given) | -1
CN1CCN(c2ncccn2)CC1c1nnc2ccc(C(=O)Nc3ccccc3F)cn12 (stereo not given) | -61
Cc1ccc(CC2(O)CCN(CCOc3ccc(O)cc3)CC2)cc1 | -4
CCCc1cc(=O)n2[nH]c(C(F)(F)F)c(-c3ccc(OC)cc3)c2n1 | -27

The list continues:
SMILES | Tg IFNy HTS
Cc1ccc(C2(CC(=O)N3CCC(O)(Cn4ccnc4C)CC3)CCOC(C)(C)C2)cc1 (stereo not given) | 7
O=C(COc1cccnc1)N1CCC(c2n[nH]c(=O)n2Cc2ccccc2)CC1 | 5
O=S(=O)(NCCc1csc(-c2ccc(Cl)cc2)n1)c1ccccc1 | -32
COCCN1CCN(C(=O)c2ccno2)Cc2cccnc21 | 0
CN(C)C(=O)N1CCC(c2nnc3ccc(C(=O)C4CCC4)cn23)C1 (stereo not given) | 9
CC(C)(C)S(=O)(=O)c1cnc(-c2cnccn2)nc1N | 51
COc1ncccc1CN1CCN(c2ccc(C(N)=O)cn2)CC1 | -1
Cc1c(Cl)cccc1NC(=O)CC(=O)N1CCCCC1c1cccnc1 (stereo not given) | 0
CCOc1ccc(Nc2nc3ccccc3c(=O)s2)cc1 | -3
O=C(COC(=O)c1ccccc1NCc1ccco1)c1ccc(Cl)cc1 | 0
CC1(C)CC(=O)C(C2(O)C(=O)Nc3ccccc32)CO1 (stereo not given) | 38
Cc1nn(CC(=O)N2C[C@H](N(C)C)C[C@H]2CO)c(=O)c2ccccc12 | 6
Cc1oc(-c2ccc(C(=O)NCCc3cnc[nH]3)cc2)nc1CN1CCN(c2ccccc2)CC1 | -110*
COc1ccc(OC)c(C2CCN(Cc3nnc(-c4ccc(C)n4C)o3)C2)c1 (stereo not given) | -1
CN(C)C(=O)N1Cc2nnn(C)c2C(COCC2CC2)C1 (stereo not given) | -2
Fc1cnc(N2CCC[C@]3(C[C@@H](Oc4ncccc4F)CO3)C2)nc1 | -2
c1ccc2c(c1)CCCN2c1nc(N2CCCC2)nc(N2CCOCC2)n1 | -35
COc1ccc(-n2cccn2)c(CN2CCCCC2c2ccccn2)c1 (stereo not given) | -85*
Cc1nn(C)cc1-c1c(-c2ccccc2)ncn1CCNC(=O)c1ccncc1 | -3
CCc1ccccc1NC(=O)COc1nc(C)nc2ccccc12 | -6
CN1CC[C@@]2(CN(c3ncccn3)C[C@H]2c2ccccc2)C1=O | 14
Cc1ccc(C(C)NC(=O)Cn2ncc3c(N4CCOCC4)ncnc32)cc1C (stereo not given) | 179
CCOC(=O)c1cccc(NC(=O)Nc2ccc(-c3nc(-c4ccc(C)cc4)co3)cc2)c1 | 23
Cc1oc(-c2ccc(C(C)C)cc2)nc1Cn1cnc2nc3c(cc2c1=O)CC(C)CC3 (stereo not given) | 14
Cc1cnn(Cc2nc(-c3ccc(NC(=O)c4c(F)cccc4Cl)cc3)oc2C)c1 | -54

Some of the entries so far, field by field.
O=C(COc1cccnc1)N1CCC(c2n[nH]c(=O)n2Cc2ccccc2)CC1
  Tg IFNy HTS = 5
O=S(=O)(NCCc1csc(-c2ccc(Cl)cc2)n1)c1ccccc1
  Tg IFNy HTS = -32
COCCN1CCN(C(=O)c2ccno2)Cc2cccnc21
  Tg IFNy HTS = 0

The listing continues:
SMILES | Tg IFNy HTS
CO[C@@H]1CN(C)C(=O)c2cc(NS(=O)(=O)c3cn(C)cn3)ccc2OC[C@@H](C)NC[C@H]1C | 17
Cn1cc(CN2CCCN(c3ccc(F)cc3)CC2)cn1 | -14
CCOC(=O)C1CCCCN1C(=O)c1c(SC)nsc1SC (stereo not given) | -8
Cc1cccc(OCC(=O)N2CSC[C@@H]2C(=O)NCCc2csc(-c3ccccc3)n2)c1 | 5
CC1CN(C(=O)CS(=O)(=O)Cc2ccccc2)CC(C)O1 (stereo not given) | 203
C/C=C/c1ccc([C@H]2[C@@H](CO)N(C(=O)CN(C)C)C23CN(C(=O)C2CCOCC2)C3)cc1 | -33
Cc1ccc(C(C)NC(=O)c2cn3c(n2)CCCC3)c(C)c1 (stereo not given) | 55
S=C(Nc1ccccc1)Nc1cccc(CCc2ccccn2)c1 | 28
COCC1CN(C(=O)Cc2cccs2)Cc2nnn(C)c21 (stereo not given) | -43
COc1cc2c(cc1OC)C(CC(=O)Nc1ccccc1)C(=O)NN=C2C (stereo not given) | 75
N#Cc1cnn(-c2ncnc3c2cnn3-c2ccccc2)c1N | -93*
CO[C@H]1CC[C@@H]2CCOc3ccc(C#N)cc3C(=O)N(C)C[C@H](c3ccccc3)CC(=O)N(C)C[C@@H]1O2 | -46

Another view of some results above.
> CC1CCN(C(CNC(=O)Cc2nnc(N)s2)c2ccccc2)CC1 (stereo not given)
  Tg IFNy HTS = -1
> COC(=O)c1c(NCc2cc(OC)ccc2OC)c2cccc(Cl)c2[nH]c1=O
  Tg IFNy HTS = -7
> CCOC(=O)CSC(=O)c1cccnc1Oc1ccccc1
  Tg IFNy HTS = 17
> CCOC(=O)c1cccc(NC(=O)CN2C(=O)CCc3cc(S(=O)(=O)N4CCCCC4)ccc32)c1
  Tg IFNy HTS = -34

A portion of the library (hit frequency here may not be typical).
